Screens: PubChem, Broad Institute
HIV Env fusion: HIV envelope-mediated fusion inhibition; HeLa-JRFL Env/CEM21 cell fusion, luciferase; inhibition, % at 12.3 µM; 360,000 tested, 1.1% active; AID 651610;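 active = mean replicate inhibition score of at least 50 and every replicate individually at or above 50; inconclusive = only one of the two criteria met; inactive = mean below 50 and not all replicates reaching 50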;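 note: 0% = plate neutral controls and 100% = maraviroc near 300 nM; one replicate is shown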
UUG fidelity: yeast start codon fidelity modulation; 350,000 tested, 0.13% active; S. cerevisiae UUG-firefly luciferase reporter, luminescence/redox ratio; activity score, % at 18.7 µM;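 active = replicate mean at a twofold rise or more, about +100% in these data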;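 note: firefly luciferase made from a UUG start codon reports start codon fidelity; reporter light over untreated wells divided by growth signal over untreated wells; some hits fall short of that in this replicate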
* hit, by the source's call; ? = inconclusive; [ ] = remark or other dose.

The first two entries, to show the layout:
Below each SMILES: HIV Env fusion | UUG fidelity
COc1ccc(CN(C)C[C@@H]2OCCCC[C@H](C)Oc3ccc(NS(C)(=O)=O)cc3C(=O)N([C@H](C)CO)C[C@H]2C)cc1
→ -9[16.7 µM] | 6
CCS(=O)(=O)N[C@H]1CC[C@H](CC(=O)NCc2ccc(F)cc2)O[C@H]1CO
→ 5[16.7 µM] | -22

The list itself, from the first entry:
Below each SMILES: HIV Env fusion | UUG fidelity
COc1ccc(CN(C)C[C@@H]2OCCCC[C@H](C)Oc3ccc(NS(C)(=O)=O)cc3C(=O)N([C@H](C)CO)C[C@H]2C)cc1
→ -9[16.7 µM] | 6
CCS(=O)(=O)N[C@H]1CC[C@H](CC(=O)NCc2ccc(F)cc2)O[C@H]1CO
→ 5[16.7 µM] | -22
CO[C@@H]1CN(C)C(=O)c2ccc(NS(=O)(=O)c3c(C)noc3C)cc2OC[C@H](C)NC[C@H]1C
→ 3[16.7 µM] | 9
C[C@@H]1CN([C@H](C)CO)C(=O)c2cc(NS(=O)(=O)c3ccc(Cl)cc3)ccc2O[C@@H](C)CCCCO[C@@H]1CN(C)S(=O)(=O)c1ccccc1
→ -41[16.7 µM] | -3
CO[C@H]1CN(C)C(=O)c2ccc(NC(=O)c3ccccc3F)cc2OC[C@@H](C)N(CC2CC2)C[C@@H]1C
→ -4[16.7 µM] | -1
C[C@@H]1CN([C@H](C)CO)S(=O)(=O)c2ccc(-c3ccc(C#N)cc3)cc2O[C@@H]1CN(C)Cc1ccccn1
→ 8[16.7 µM] | -5
O=C(C[C@H]1C=C[C@@H](NC(=O)Nc2ccc(F)cc2)[C@H](CO)O1)NCc1ccccn1
→ ? | -10
CCCNC(=O)Nc1ccc2c(c1)OC[C@@H](C)N(CC1CCCC1)C[C@@H](C)[C@@H](OC)CN(C)C2=O
→ -6[16.7 µM] | 11
CCNC(=O)C[C@@H]1CC[C@H]2[C@@H](COC[C@@H](O)CN2C(=O)C2CCOCC2)O1
→ -4[16.7 µM] | -7
O=C(C[C@H]1CC[C@H]2[C@@H](COC[C@H](O)CN2Cc2cc(F)ccc2F)O1)N1CCc2ccccc2C1
→ 5[16.7 µM] | -10
CCCC#Cc1ccc2c(c1)O[C@@H](CN(C)C(=O)CC1CC1)[C@H](C)CN([C@@H](C)CO)S2(=O)=O
→ -26[16.7 µM] | -2
C[C@H]1CN([C@@H](C)CO)C(=O)c2cc(NC(=O)Cn3cnnn3)ccc2O[C@@H]1CN(C)Cc1ccccc1
→ -10[16.7 µM] | -7
COc1ccc(C#Cc2ccc3c(c2)O[C@H](CN(C)C(=O)Nc2cccc(OC)c2)[C@H](C)CN([C@H](C)CO)S3(=O)=O)cc1
→ 2[16.7 µM] | -4
C[C@@H]1CCCCO[C@@H](CN(C)C(=O)Nc2cccc3ccccc23)[C@@H](C)CN([C@@H](C)CO)C(=O)c2cc(NC(=O)c3ccccc3)ccc2O1
→ -113[16.7 µM] | -3
CN1C(=O)c2cc(NC(=O)c3cscn3)ccc2OC[C@H]2O[C@@H](CC(=O)N3CCCCC3)CC[C@@H]21
→ -8[16.7 µM] | -1
C[C@@H]1CN([C@H](C)CO)S(=O)(=O)c2ccc(-c3cccnc3)cc2O[C@@H]1CN(C)C(=O)CC1CC1
→ -35[16.7 µM] | 16
COc1ccc(S(=O)(=O)Nc2ccc3c(c2)CC(=O)N([C@@H](C)CO)C[C@H](C)[C@@H](CN(C)S(=O)(=O)c2ccc(C)cc2)O3)cc1
→ 5[16.7 µM] | 2
Cc1noc(C)c1S(=O)(=O)Nc1ccc2c(c1)CC(=O)N([C@@H](C)CO)C[C@@H](C)[C@@H](CN(C)Cc1ccccc1)O2
→ -2[16.7 µM] | -13
C[C@@H]1CCCCO[C@@H](CN(C)S(=O)(=O)c2cccs2)[C@H](C)CN([C@H](C)CO)C(=O)c2cc(NC(=O)C3CCCCC3)ccc2O1
→ -102[16.7 µM] | 1
CNC[C@H]1Oc2ccc(NC(=O)Nc3cccc4ccccc34)cc2CC(=O)N([C@H](C)CO)C[C@@H]1C
→ -4[16.7 µM] | 1

Below each SMILES: HIV Env fusion | UUG fidelity
CC(C)CC#Cc1ccc2c(c1)O[C@@H](CN(C)S(=O)(=O)c1cccc(F)c1)[C@H](C)CN([C@H](C)CO)S2(=O)=O
→ 36[16.7 µM] | -1
CCCNC(=O)N(C)C[C@H]1Oc2cc(-c3ccc(C)cc3)ccc2S(=O)(=O)N([C@H](C)CO)C[C@@H]1C
→ -31[16.7 µM] | 12
Cc1noc(C)c1NC(=O)N[C@@H]1CC[C@H](CCNC(=O)C2CC2)O[C@H]1CO
→ 14[16.7 µM] | -17
O=C(C[C@@H]1CC[C@H]2[C@@H](COC[C@H](O)CN2Cc2cc(F)ccc2F)O1)N1CCc2ccccc2C1
→ 8[16.7 µM] | -9
C[C@@H]1CN([C@@H](C)CO)C(=O)c2cc(NC(=O)C3CC3)ccc2O[C@H]1CN(C)C(=O)Nc1ccccc1
→ -5[16.7 µM] | -6
COc1ccc(S(=O)(=O)Nc2ccc3c(c2)CC(=O)N([C@@H](C)CO)C[C@@H](C)[C@H](CN(C)Cc2ccc(Oc4ccccc4)cc2)O3)cc1
→ ? | 7
Cc1noc(C)c1S(=O)(=O)N(C)C[C@H]1OCCCC[C@@H](C)Oc2ccc(NC(=O)Cc3ccccc3)cc2C(=O)N([C@@H](C)CO)C[C@H]1C
→ -25[16.7 µM] | -3
CN(C)C(=O)C[C@H]1C[C@H]2c3cc(NC(=O)C4CCC4)ccc3O[C@H]2[C@@H](CO)O1
→ -40[16.7 µM] | -8
Cc1ccc(S(=O)(=O)N(C)C[C@@H]2Oc3ccc(NS(C)(=O)=O)cc3C(=O)N([C@@H](C)CO)C[C@@H]2C)cc1
→ 8[16.7 µM] | 2
CCC(=O)N[C@@H]1CC[C@@H](CCn2cc(-c3cccc(OC)c3)nn2)O[C@@H]1CO
→ -1[16.7 µM] | -5
C[C@@H]1CN([C@H](C)CO)C(=O)c2cccc(NC(=O)NC3CCCCC3)c2O[C@@H]1CN(C)Cc1ccc2c(c1)OCO2
→ 3[16.7 µM] | 7
C[C@H]1CN([C@@H](C)CO)C(=O)c2cccc(NC(=O)c3nc4ccccc4s3)c2O[C@H]1CN(C)C(=O)Nc1ccccc1
→ 10[16.7 µM] | -8
C[C@@H]1CN([C@H](C)CO)C(=O)Cc2cc(NC(=O)Cc3ccccc3)ccc2O[C@@H]1CN(C)S(=O)(=O)c1ccccc1
→ 4[16.7 µM] | 9
O=C(CCN1CCCCC1)NCC[C@H]1CC[C@H](NC(=O)C2CCC2)[C@H](CO)O1
→ -5[16.7 µM] | -12
CCCNC(=O)N(C)C[C@H]1Oc2cc(-c3ccccc3)ccc2S(=O)(=O)N([C@@H](C)CO)C[C@H]1C
→ 8[16.7 µM] | -1
Cc1noc(C)c1S(=O)(=O)Nc1ccc2c(c1)CC(=O)N([C@H](C)CO)C[C@H](C)[C@@H](CN(C)C(=O)NC(C)C)O2
→ 11[16.7 µM] | -6
C[C@@H]1CN([C@H](C)CO)S(=O)(=O)c2ccc(C#Cc3ccccc3)cc2O[C@@H]1CN(C)C(=O)c1ccccn1
→ -34[16.7 µM] | 2
CC(C)CC#Cc1ccc2c(c1)O[C@@H](CN(C)C(=O)C1CCC1)[C@@H](C)CN([C@@H](C)CO)S2(=O)=O
→ 33[16.7 µM] | 6
C[C@H]1CN([C@@H](C)CO)C(=O)Cc2cc(NC(=O)c3ccncc3)ccc2O[C@H]1CN(C)Cc1ccc2c(c1)OCO2
→ 3[16.7 µM] | -5
C[C@@H]1CN([C@H](C)CO)C(=O)Cc2cc(NS(=O)(=O)c3ccccc3)ccc2O[C@@H]1CN(C)Cc1ccccc1
→ -23[16.7 µM] | -4

Below each SMILES: HIV Env fusion | UUG fidelity
COc1ccc(S(=O)(=O)N(C)C[C@H]2Oc3cc(C4=CCCC4)ccc3S(=O)(=O)N([C@@H](C)CO)C[C@@H]2C)cc1
→ 11[16.7 µM] | -4
CCNC(=O)C[C@@H]1CC[C@H]2[C@H](COc3ccc(NC(=O)Nc4cccc(F)c4)cc3C(=O)N2C)O1
→ -14[16.7 µM] | 14
C[C@@H]1CCCCO[C@H](CN(C)C(=O)Nc2cccc3ccccc23)[C@H](C)CN([C@@H](C)CO)C(=O)c2cc(NC(=O)NC3CCCCC3)ccc2O1
→ -62[16.7 µM] | -6
O=C(Cc1ccncc1)NCC[C@@H]1CC[C@H](NC(=O)Nc2ccc(F)cc2)[C@H](CO)O1
→ 5[16.7 µM] | 21
C[C@@H]1CN([C@H](C)CO)C(=O)c2cc(NS(=O)(=O)c3ccccc3)ccc2O[C@@H]1CN(C)Cc1ccc(C(=O)O)cc1
→ 15[16.7 µM] | 13
CCC(=O)N[C@H]1C=C[C@@H](CC(=O)OC)O[C@@H]1CO
→ 17[16.7 µM] | 10
NCC[C@H]1CC[C@H](NC(=O)NC2CCCCC2)[C@@H](CO)O1
→ 4[16.7 µM] | -5
COc1ccccc1NC(=O)N[C@H]1CC[C@H](CC(=O)N[C@@H](C)c2ccccc2)O[C@@H]1CO
→ 1[16.7 µM] | 0
C[C@H](NC(=O)C[C@@H]1CC[C@H]2[C@@H](COC[C@H](O)CN2Cc2cc(F)ccc2F)O1)c1ccccc1
→ 17[16.7 µM] | -13
C[C@H](CO)N1C[C@H](C)[C@@H](CN(C)S(=O)(=O)c2ccc(Cl)cc2)Oc2ccc(NC(=O)Nc3ccc4c(c3)OCO4)cc2C1=O
→ 5[16.7 µM] | -6
Cc1ccccc1S(=O)(=O)N[C@@H]1CC[C@H](CCNS(=O)(=O)c2cccc(F)c2)O[C@@H]1CO
→ 10[16.7 µM] | 16
O=C(N[C@@H]1C=C[C@H](CC(=O)N2CCCCC2)O[C@@H]1CO)c1ccccn1
→ -5[16.7 µM] | -11
C[C@@H]1CN([C@H](C)CO)S(=O)(=O)c2ccc(C#Cc3ccc(F)cc3)cc2O[C@@H]1CN(C)S(C)(=O)=O
→ 13[16.7 µM] | 4
CN(C)C(=O)c1ccc(-c2ccc([C@H]3[C@@H](C#N)N(C(=O)C4CCCCC4)[C@H]3CO)cc2)cc1
→ 15[16.7 µM] | 7
COc1ccc(NC(=O)N[C@@H]2CC[C@H](CCn3cc(-c4ccccc4)nn3)O[C@H]2CO)cc1
→ 6[16.7 µM] | -13
Cc1ccc(S(=O)(=O)N(C)C[C@H]2OCCCC[C@@H](C)Oc3ccc(NC(=O)Nc4ccc(C(F)(F)F)cc4)cc3C(=O)N([C@@H](C)CO)C[C@H]2C)cc1
→ 17[16.7 µM] | -9
COc1ccc(NC(=O)N(C)C[C@@H]2Oc3ccc(NC(=O)Cc4cn(C)c5ccccc45)cc3CC(=O)N([C@@H](C)CO)C[C@H]2C)cc1
→ -18[16.7 µM] | 6
COCC(=O)N(C)C[C@H]1Oc2cc(-c3ccncc3)ccc2S(=O)(=O)N([C@H](C)CO)C[C@H]1C
→ -7[16.7 µM] | -7
Cc1ccccc1-c1cnc2c(c1)C(=O)N([C@@H](C)CO)C[C@@H](C)[C@@H](CN(C)Cc1cccnc1)O2
→ -11[16.7 µM] | 0
C=CCN1C(=O)[C@@]2(O[C@@H](CCn3cc([C@H](O)c4ccccc4)nn3)[C@H]([Si](C)(C)c3ccc(OC)cc3)[C@H]2C)c2cc(N3CCOC3=O)ccc21
→ -7[16.7 µM] | 1

Some values from the list:
For UUG fidelity, C[C@@H]1CN([C@H](C)CO)S(=O)(=O)c2ccc(C#Cc3ccc(F)cc3)cc2O[C@@H]1CN(C)S(C)(=O)=O has 4
For HIV Env fusion, CCC(=O)N[C@H]1C=C[C@@H](CC(=O)OC)O[C@@H]1CO has 17[16.7 µM]

(list continues)
Below each SMILES: HIV Env fusion | UUG fidelity
COc1ccccc1-c1cnc2c(c1)C(=O)N([C@H](C)CO)C[C@H](C)[C@H](CN(C)Cc1ccncc1)O2
→ 2[16.7 µM] | -11
C[C@@H]1CN([C@@H](C)CO)C(=O)c2cc(NS(=O)(=O)c3ccc(F)cc3)ccc2O[C@@H](C)CCCCO[C@H]1CN(C)CC1CCCCC1
→ -50[16.7 µM] | 19
C[C@H](CO)N1C[C@H](C)[C@@H](CN(C)C(=O)Nc2ccc(F)cc2)Oc2ncc(C3=CCCCC3)cc2C1=O
→ -17[16.7 µM] | 15
O=C(C[C@H]1CC[C@@H](NC(=O)c2ccccc2)[C@H](CO)O1)NCc1ccncn1
→ -23[16.7 µM] | -5
COCC(=O)Nc1ccc2c(c1)C(=O)N(C)C[C@H](OC)[C@H](C)CN(Cc1ccncc1)[C@H](C)CO2
→ -22[16.7 µM] | 7
C[C@@H]1CN([C@@H](C)CO)C(=O)c2cc(Br)cnc2O[C@H]1CN(C)S(=O)(=O)c1ccc(F)cc1
→ 6[16.7 µM] | 22
C[C@@H]1CCCCO[C@@H](CN(C)Cc2ccc3c(c2)OCO3)[C@H](C)CN([C@@H](C)CO)C(=O)c2cc(NS(=O)(=O)c3ccc(Cl)cc3)ccc2O1
→ -16[16.7 µM] | 4
COc1ccc(C#Cc2ccc3c(c2)O[C@H](CN(C)S(=O)(=O)c2ccccc2F)[C@@H](C)CN([C@@H](C)CO)S3(=O)=O)cc1
→ 8[16.7 µM] | -14
CCCN(C)C[C@H]1Oc2cc(C#C[C@@H](C)O)ccc2S(=O)(=O)N([C@H](C)CO)C[C@H]1C
→ 1[16.7 µM] | 13
O=C(N[C@H]1CC[C@H](CCNS(=O)(=O)c2ccccc2Cl)O[C@@H]1CO)c1ccc(F)cc1
→ -2[16.7 µM] | 2
C[C@@H]1CN([C@H](C)CO)C(=O)Cc2cc(NC(=O)Cc3cn(C)c4ccccc34)ccc2O[C@@H]1CN(C)CC1CCCCC1
→ -78[16.7 µM] | -1

Copied from the listing (2 entries):
Below each SMILES: HIV Env fusion | UUG fidelity
C[C@@H]1CN([C@H](C)CO)C(=O)Cc2cc(NS(=O)(=O)c3ccccc3)ccc2O[C@@H]1CN(C)Cc1ccccc1
→ -23[16.7 µM] | -4
COc1ccc(S(=O)(=O)N(C)C[C@H]2Oc3cc(C4=CCCC4)ccc3S(=O)(=O)N([C@@H](C)CO)C[C@@H]2C)cc1
→ 11[16.7 µM] | -4

Some of the compounds tested, so the mix of outcomes need not match the whole.
